From PubChem BioAssay
HSD17B inh: blocks hydroxysteroid 17-beta dehydrogenase activity; Potency, µM (titrated, usually from 57.1 µM), inactives show top-dose activity change, negative = inhibition, usual class: inhibitors; AID 893; actives 7.6% (n = 75,000); recombinant HSD17B10, NADH fluorescence kinetic; many of its hits are not listed in these tables; Q99714; active = well fitted inhibition curve with a large enough effect; inconclusive = small, poorly fitted or top-dose-only effect; inactive = no such curve, though single readings can be large or run the other way;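 note: the protocol describes HADH2 (HSD17B10) and not the HSD17B4 of the title; nearly all actives have a fitted effect of over 70% in size; most hits overshoot -100% by far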
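Enzyme plus compound, 15 min room temperature; substrate mix added (NAD+ 1 mM, beta-hydroxybutyryl-CoA 90 uM final); plates read kinetically for NADH fluorescence. HADH2 was His-tagged, E. coli-derived, 20 nM.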
Numbers without * were called inactive; ? = inconclusive; & = joins results of further samples; [ ] = dose if it differs, or a comment. % is set by controls: 0 for no effect and ±100 for the full control effect; potency is the fitted concentration of half-maximal effect.

molecule	HSD17B inh
CC(NC(=O)Cc1ccsc1)c1ccc(S(N)(=O)=O)cc1 (stereo not drawn)	-3%
C=CCC(=O)OCC(=O)Nc1ccc(Oc2ccccc2)cc1	0%
Cc1c(Cl)cccc1N(CC(=O)N1CCCCCC1)S(C)(=O)=O	5%
O=c1cc(CSc2nnc(-c3ccco3)o2)c2ccccc2[nH]1	-2%
Cc1cc(NC(=O)C(C)C)ncc1NC(=O)CCc1ccccc1	13%
COc1cccc(-n2ccnc2SCC(=O)Nc2nccs2)c1	0%
Cn1cnc([N+](=O)[O-])c1SCC(=O)O	3%[11.4 µM]
CC(=O)N1CCC[C@@]2(CCN(Cc3ccccc3)C2)C1	10%
Cc1ccc(-n2ncc3c(=O)[nH]c(SCC(=O)N4CCC(C)CC4)nc32)cc1C	-4%
CCOC(=O)C1CCCN(C(=O)CCCn2nc(C)n3c(cc4sccc43)c2=O)C1 (stereo not drawn)	5%
COc1ccc(Oc2ncc3nc(-c4ccccc4)c(=O)n(CCC#N)c3n2)cc1	?
CCOC(=O)CSc1nnc(Cn2c(=O)sc3ccccc32)n1-c1ccccc1C	-29%
CC(NC(=O)CCC(=O)NC(C)C1COc2ccccc2O1)C1COc2ccccc2O1 (stereo not drawn)	-2%
CC1CCCN(S(=O)(=O)c2ccc(C(=O)Nc3nnc(-c4ccccc4Cl)o3)cc2)C1 (stereo not drawn)	3%
COCCn1c(=O)cnc2cnc(Nc3cccc(OC)c3)nc21	-6%
CCCCC[C@H](O)C=C[C@H]1[C@H](O)CC(=O)[C@H]1CCCCCCC(=O)O	-1%
O=C(Nc1cnn(Cc2ccc(F)cc2)c1)c1cc(-c2ccc(Br)cc2)on1	?
Cc1cc(NC(=O)CCC(=O)N(c2ccc(F)cc2)C2(C(=O)NC3CCCCC3)CCCC2)no1	-11%
C=CCn1c(C)c(C(C)=O)c(SC)nc1=S	0%
CN(C)c1cccc(C(=O)NC2CCCCCC2)c1	?
COc1cc2nc(COc3ccc(C#N)cc3)n(CC#N)c(=O)c2cc1OC	-2%
COC(=O)C1=C(N)Oc2cc(C)n(CCN3CCOCC3)c(=O)c2C1c1cccnc1 (stereo not drawn)	3%
c1ccc(CN2CCC3(CCc4ccccc43)CC2)cc1	-2%
CC(=O)N(OCc1ccccc1)[C@@H]1c2cc(C#N)ccc2OC(C)(C)[C@H]1O	-5%
COC(=O)C1=C(C)N(Cc2ccccc2)C2=C3C(=O)N(c4ccccc4)C(=O)C3[C@@](O)(C(=O)OC)C(=O)N2C1c1ccccc1 (stereo partly drawn)	0%&6%[11.4 µM]
Cc1ccc(Cn2nnc3c(=O)n(CC(=O)NCc4ccc5c(c4)OCO5)cnc32)cc1	0%
CC(C)N1CC(O)=C(c2nc3ccccc3[nH]2)C1=N	-6%
Cc1sc2nc(C(C)C)nc(SCC(=O)N3CCN(C(=O)c4ccco4)CC3)c2c1C	0%
CC(=O)N(C)c1ccc(OCC(O)CN(Cc2ccco2)S(=O)(=O)c2ccc(C)cc2)cc1 (stereo not drawn)	-1%
CCC(C)Sc1nnc(-c2c[nH]c3ccccc23)n1CCOC (stereo not drawn)	-3%
CCN1CCN(C(=O)c2ccccc2N(C)S(=O)(=O)c2ccc(C)cc2)CC1	2%
COc1cc2c(cc1OC)CN(S(C)(=O)=O)CC2	4%
O=C(CN1C2=NCCCN2c2ccccc21)c1ccc2c(c1)OCO2	0%
CCn1c(=O)cc(SCC(=O)N2CCOCC2)c2ccccc21	?
Cn1nnc2cc(C(=O)NCc3ccc4c(c3)OCO4)ccc21	-4%
CCOC(=O)c1c(NC(=O)Cn2c(=O)oc3ccccc32)oc(C)c1C(C)=O	1%
O=S(=O)(c1ccc(F)c2ccccc12)N1CCCCC1	-6%
O=c1cc(CF)[nH]c(=S)[nH]1	2%[11.4 µM]
O=C1C(=O)N(CCOCCO)C(c2ccccn2)/C1=C(\O)c1ccccc1 (stereo not drawn)	1%
COc1cccc(Cn2c(=O)c(C)nc3cnc(Oc4ccccc4)nc32)c1	-2%
CCc1ccc(C2CC(c3ccc(Cl)cc3)n3nc(N)nc3N2)cc1 (stereo not drawn)	6%
N[C@@H](Cc1ccccc1)c1nnc2sc(SCc3ccccc3)nn12	-12%
Cc1ccc(-c2nsc3c(N4CCN(C(=O)c5ccco5)CC4)ncnc23)cc1	32µM*
CCOC(=O)CC1=C(C(=O)OCC)C(c2ccncc2)C(C#N)=C(N)O1 (stereo not drawn)	11%
CN1CCc2c(sc3c2c(NCc2ccco2)nc2nnnn23)C1	32µM*
CCOC(=O)c1cnc(-c2ccccc2)nc1N	-1%
COc1ccccc1C(=O)NC(CCSC)C(=O)OCC(=O)NC(=O)NCc1ccco1 (stereo not drawn)	-1%
COCc1[nH]nc2c1C(c1ccccc1F)C(C#N)=C(N)O2 (stereo not drawn)	-22%
COc1ccc(-n2c(SCC(=O)OC(C)C)nnc2-c2ccccn2)cc1	6%
O=C(CN1CCCCCC1)OCCN=C1NS(=O)(=O)c2ccccc21	-9%
COC(=O)c1ccc(N2C(=O)c3ccc(OC)c(OC)c3C2=O)cc1	?
O=S(=O)(NCc1cn2ccsc2n1)c1cccs1	-7%
CN(C)c1cccc(O)c1	-1%
COc1ccc(S(=O)(=O)N(C)c2ccc(OCC(=O)Nc3cc(C)on3)cc2)cc1	-6%
C=CCOc1c(CNc2nccs2)cccc1OCC	10%
Cc1ccc2c(c1)c1c3n2CC(=C2C(=O)OC(C)(C)OC2=O)NC3CCC1 (stereo not drawn)	?
CC(C)Oc1ccc(-c2nn(-c3ccccc3)cc2/C=c2\sc3ncnn3c2=O)cc1	7%
O=S(=O)(Nc1ccc2nc(-c3ccc(Br)o3)[nH]c2c1)c1ccccc1	?
O=S(=O)(c1cccc(C(F)(F)F)c1)N(CCCN1CCOCC1)Cc1cccs1	0%
O=C(Cn1c(=O)oc2cc(S(=O)(=O)N3CCCC3)ccc21)Nc1cccc(C(F)(F)F)c1	-5%

(further entries)
molecule	HSD17B inh
C(=Nc1cnc2ccccc2c1)c1ccc2ccccc2n1	?
Cn1c(=O)c2c(nc(N3CCN(c4ccccc4)CC3)n2CCCc2ccccc2)n(C)c1=O	2%
COC(=O)c1sccc1NC(=O)C1CC=CCC1C(=O)O (stereo not drawn)	-4%
Nc1nonc1C(=O)OCC(=O)N1CCOCC1	19%
CCCn1c(=N)n(CC(=O)OCC)c2ccccc21	5%
C(#CC1C=CC2OC(c3ccccc3)OCC2O1)c1ccccc1 (stereo not drawn)	5%[11.4 µM]
CN1CCCC(OC(=O)COc2ccc(Br)cc2)C1 (stereo not drawn)	6%
CCOC(=O)CSc1nnc(CNC(=O)c2cc(OCC)c(OCC)c(OCC)c2)n1C	6%
CCCOCC(C)OCC(C)O (stereo not drawn)	3%
O=C(CCC(=O)OCCCC(F)(F)C(F)(F)F)NC1CCCCC1	7%
O=C(Nc1nc2ccc(S(=O)(=O)N3CCCC3)cc2s1)c1cccs1	?
CCOC(=O)C1C(=O)NC(N2CCN(Cc3ccccc3)CC2)=NC1c1ccco1 (stereo not drawn)	9%
O=C(Nn1cnnc1)c1cc(-c2ccccn2)nc2ccccc12	-6%
Cn1c(=O)cc(SCC(=O)N2CCCC2)c2ccccc21	-1%
CCCOc1ccc(C2C(=O)N(C3CCCCC3)CC(=O)N2CCCOCC)cc1OC (stereo not drawn)	3%
CC1N=C2c3ccccc3N=C(SCc3cc(=O)n4cc(Cl)ccc4n3)N2C1=O (stereo not drawn)	?
Cc1nc(CC(=O)c2c(C)cc(O)cc2O)cs1	3%
O=S(=O)(c1cccc(-c2nnc(SC(F)F)n2-c2ccccc2)c1)N1CCCCC1	1%
Cc1occc1C(=O)NCCCCNC(=O)c1ccoc1C	-3%
O=C(O)CCS(=O)(=O)Cc1cccc(Cl)c1	5%

Given as labelled records: 4 of the compounds above
compound: O=C(CCC(=O)OCCCC(F)(F)C(F)(F)F)NC1CCCCC1
  HSD17B inh: 7%

compound: Cc1nc(CC(=O)c2c(C)cc(O)cc2O)cs1
  HSD17B inh: 3%

compound: C(#CC1C=CC2OC(c3ccccc3)OCC2O1)c1ccccc1 (stereo not drawn)
  HSD17B inh: 5%[11.4 µM]

compound: Cc1occc1C(=O)NCCCCNC(=O)c1ccoc1C
  HSD17B inh: -3%

Carrying on:
molecule	HSD17B inh
Cn1c(Cn2nnc3ccccc32)nnc1SCC(=O)Nc1ccc2c(c1)OCO2	2%
COc1cccc(CNC(=O)C2CCN(S(=O)(=O)c3cnc[nH]3)CC2)c1	7%
CCc1cc(=O)oc2cc(OCC(=O)O)c(Cl)cc12	25µM*
O=C(CSc1nnc(-c2cccs2)n1-c1ccccc1)N1CCN(C(=O)c2ccco2)CC1	-11%
COC(=O)c1ccc(CNC(=O)CNc2cc(C(F)(F)F)ccc2N2CCOCC2)cc1	-1%
COc1ccc(N2CCN(C(=O)CSc3nnc(-c4ccc5[nH]c(C)c(C)c5c4)o3)CC2)cc1	8%
c1ccc(CN2CCC3(CC2)Nc2ccccc2CO3)cc1	5%
CC1=CC(C)(C)N=C(Nc2ccc(C)cc2)S1	-4%
CN(C)CCc1c[nH]c2ccc(CC3COC(=O)N3)cc12 (stereo not drawn)	4%
O=C(Nc1cccc(Cl)c1)N1CCN(c2ncccn2)CC1	3%
O=C(NCc1cccnc1)[C@@H]1[C@@H](C(=O)O)[C@H]2CC[C@@H]1O2	1%[11.4 µM]
CC(C)Oc1ccc(C2CNC(=O)C2)cc1 (stereo not drawn)	-1%
C=CCC1C=CC(Oc2ccc(OC)cc2)C(COC(=O)c2ccc(Br)cc2)O1 (stereo not drawn)	0%[11.4 µM]
CC(=O)c1cccc(NC(=O)C2CCN(S(C)(=O)=O)CC2)c1	3%
COc1ccc2[nH]c3c(=O)n(Cc4ccco4)cnc3c2c1	3.2µM*
COc1cccc(C(=O)CSc2nnc(-c3cc(OC)c(OC)c(OC)c3)o2)c1	-14%
Nc1nc(-c2ccccc2)cc(C(F)(F)F)n1	32µM*
COC(=O)N1CCC2(CCCN(C(=O)Nc3ccc(OC)cc3)C2)CC1	4%
CCOC(=O)c1ccc(NC(=O)CSc2nnc(COc3ccccc3)n2C)cc1	-15%
CCOC(=O)CSc1nc2cc3c(cc2cc1C#N)OCO3	32µM*
Clc1ccccc1OCCn1cnc2ccccc21	1%
Cc1nnc2n(Cc3ccccc3)c(=O)c3c4c(sc3n12)COC(C)(C)C4	5%
O=C(CSc1nnc2scc(-c3ccccc3)n12)Nc1ccc2c(c1)OCCO2	3%
CCOC(=O)C1C(=O)Nc2nc3ccccc3n2C1C(C)C (stereo not drawn)	-2%
O=C(COC(=O)Cn1[nH]c(=O)c2ccccc2c1=O)Nc1ccc2c(c1)OCO2	26%
Cc1cc(C(=O)Nc2ccc3c(c2)OCO3)cs1	-3%
CSCCC(NC(=O)c1ccccc1)C(=O)NC1CCCC1 (stereo not drawn)	16%
Cc1ccc(-n2nc(C)c(C3C(C#N)=C(N)OC4=C3C(=O)CCC4)c2Cl)cc1 (stereo not drawn)	-17%
COc1ccc(Cl)cc1C(=O)Nn1cnc2ccccc2c1=O	7%
Cc1ccc2[nH]cc(C(=O)CN3CCN(c4ccccn4)CC3)c2c1	?
COc1ccc(Nc2nc(C)cc(C)c2C#N)cc1OC	5%
COc1ccccc1S(=O)(=O)Cc1ccc(C(=O)N2CCN(c3cccc(Cl)c3)CC2)o1	0%
CCCn1c2ccccc2c2nnc(SCC(=O)OC)nc21	-1%
CCOC(=O)Oc1ccc2oc(C)c(C(=O)OCCOC)c2c1	7%
COc1ccc(-c2coc3cc(OC4OC(CO)C(O)C(O)C4O)cc(O)c3c2=O)cc1 (stereo not drawn)	0%
CCOC(=O)/C(C#N)=C1/CCCCCN1C	-2%
CC(C)CO/N=C1/[C@H]2O[C@@H]2[C@@H](O)[C@H]2[C@H]1CCn1c(=O)n(-c3ccccc3)c(=O)n12	-1%[11.4 µM]
COc1ccc(NC(=O)C2=C(C)C(=O)OC23CCC(C)CC3)c(OC)c1 (stereo not drawn)	-1%
COc1cc2[nH]c(=O)n(CCCCCC(=O)N3CCN(c4ccccc4)CC3)c(=O)c2cc1OC	?
Cc1cc2n(n1)C(c1ccc(O)cc1)Nc1ccccc1-2 (stereo not drawn)	25µM*
O=C1c2ccccc2C(=O)N1C/C=C/CN1C(=O)c2ccccc2C1=O	-2%
CN(C)c1ccc(CNC(=O)C2(C)C=CCN2C(=O)c2ccccc2)cc1 (stereo not drawn)	18%

Gathered by group: the entries above containing bromine.
molecule	HSD17B inh
O=C(Nc1cnn(Cc2ccc(F)cc2)c1)c1cc(-c2ccc(Br)cc2)on1	?
O=S(=O)(Nc1ccc2nc(-c3ccc(Br)o3)[nH]c2c1)c1ccccc1	?
CN1CCCC(OC(=O)COc2ccc(Br)cc2)C1 (stereo not drawn)	6%
C=CCC1C=CC(Oc2ccc(OC)cc2)C(COC(=O)c2ccc(Br)cc2)O1 (stereo not drawn)	0%[11.4 µM]

This is a subset; the hit share may differ from the screen's.
